KCNQ2 pot: enhances the rat KCNQ2 potassium channel; CHO-K1 KCNQ2, FluxOR thallium flux fluorescence; stronger effect = higher value; B-score at 10 µM; hit rate 0.54% among 310,000; O88943;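 active means fluorescence ratio B-score at least 3 SD of library B-scores, with initial fluorescence B-score within 3 SD, cut at about 5.3 in these data; same plate scores as AID 2156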;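 further: B-score of peak minus minimum over baseline fluorescence ratio after K+ and Tl+ stimulus; positive B-score means potentiation of KCNQ2 with more thallium influx and brighter signal; only the inactives scoring about 0 or higher are listed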
Target sequence (O88943 whole entry, looked up): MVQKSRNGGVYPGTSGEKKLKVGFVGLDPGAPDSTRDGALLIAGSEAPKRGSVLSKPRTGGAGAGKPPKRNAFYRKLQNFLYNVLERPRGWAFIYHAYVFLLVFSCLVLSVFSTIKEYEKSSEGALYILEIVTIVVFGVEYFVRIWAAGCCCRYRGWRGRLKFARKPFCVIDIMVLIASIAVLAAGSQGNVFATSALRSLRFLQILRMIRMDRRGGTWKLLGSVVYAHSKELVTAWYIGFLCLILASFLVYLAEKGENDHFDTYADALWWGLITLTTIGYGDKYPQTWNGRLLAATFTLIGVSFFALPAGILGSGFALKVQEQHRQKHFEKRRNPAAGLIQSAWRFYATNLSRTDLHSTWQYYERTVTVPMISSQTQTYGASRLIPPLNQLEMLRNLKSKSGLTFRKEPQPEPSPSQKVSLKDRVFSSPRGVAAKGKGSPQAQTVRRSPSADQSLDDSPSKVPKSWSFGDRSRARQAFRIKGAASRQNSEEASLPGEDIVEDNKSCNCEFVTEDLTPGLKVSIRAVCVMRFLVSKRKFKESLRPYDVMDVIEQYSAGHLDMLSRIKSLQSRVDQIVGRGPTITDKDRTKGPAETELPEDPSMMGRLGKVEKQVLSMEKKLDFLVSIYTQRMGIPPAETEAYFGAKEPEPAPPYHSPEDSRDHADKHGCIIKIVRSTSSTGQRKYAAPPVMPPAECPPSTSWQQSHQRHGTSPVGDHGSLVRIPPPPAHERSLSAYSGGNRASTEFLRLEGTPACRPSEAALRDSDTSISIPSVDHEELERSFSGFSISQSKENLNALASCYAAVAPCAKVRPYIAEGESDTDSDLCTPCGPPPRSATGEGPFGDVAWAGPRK
KCNQ2 pot baseline: further read-out of KCNQ2 pot, marked with its call; B-score; compound at 10 µM; measured here: initial fluorescence intensity artifact check;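 brightness before thallium and not channel activity; 0 = typical well and far values either way flag optical interference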
Starred values were filed as active, the others as inactive.

SMILES	KCNQ2 pot	KCNQ2 pot baseline
CN1C(=O)N2CN(C3CCCCC3)CN3C(=O)N(C)C1C23 (stereo not given)	0.31	0
CCOC(=O)c1c(-c2cccs2)csc1NC(=O)CN1CCOCC1	0.11	3.1
C=CCn1c(SCCC(=O)O)nc2c1c(=O)n(C)c(=O)n2C	1.3	-1.7
CCOC(=O)c1ccc(S(=O)(=O)N2CCN(CC(O)COc3cccc(C(C)=O)c3)CC2)cc1 (stereo not given)	2.4	-0.01
O=C(CCN1CCC(c2ccc(Cl)s2)=N1)c1ccc(Cl)s1	0.07	-0.43
COc1ccc(NC(=S)N2CCN(C/C=C/c3ccccc3)CC2)c(OC)c1	0.43	0.74
CCCc1cc(=O)n2[nH]c(NC(=O)c3ccco3)nc2n1	1.5	1.2
COc1ccc(Cc2nnc(NC(=O)C(C)(C)C)s2)cc1	1.4	-1.2
CC(=O)Nc1sc2c(c1C(c1ccccc1Cl)N1CCN(CCO)CC1)CCCC2 (stereo not given)	5.3*	0.44*
CC(=O)N1CCc2c(sc(NC(=O)CN3C(=O)c4ccccc4C3=O)c2C(N)=O)C1	0.35	0.1
CCc1cc(-c2n[nH]c(=S)n2-c2ccccc2C)cs1	0.54	-0.98
COc1ccc(Oc2nc(SC)nc3ccccc23)cc1	1.4	0.01
CCN(CC1COc2ccccc2O1)C(=S)NC1CC2CCC1C2 (stereo not given)	12*	1.1*
Cc1ccc(CN2CCN(C3CCC3)CC2CCO)cc1 (stereo not given)	0.07	-0.95
COc1ccc(C(CNC(=O)c2cc(C)oc2C)N2CCOCC2)cc1 (stereo not given)	0.04	1.4
CCOC(=O)c1c(NC(=O)c2cnn3c2NC(c2cccc(OC)c2)CC3C(F)(F)F)sc2c1CCCC2 (stereo not given)	1.3	0.14
Cc1ccc(C(=O)N2CCOCC2)cc1[N+](=O)[O-]	1.2	0.74
O=C(Nc1cccc(C(=O)N2CCOCC2)c1)c1ccc([N+](=O)[O-])cc1	0.94	0.64
O=C(N/N=C/c1c[nH]c2ccccc12)c1ccn[nH]1	0.09	1.6
N#Cc1cn(CC(=O)N2CCCC2)c2ccccc12	0.75	-2.2
CCN(CC(=O)Nc1ccc(S(=O)(=O)N2CCOCC2)cc1)Cc1ccccc1	0.56	-0.78
CCSC(SCC)[C@H](O)[C@@H](O)[C@H](O)[C@H](O)CO	0.19	-0.36
CCCc1cc(=O)[nH]c(SCc2cc(C(=O)OC)c(C)o2)n1	0.1	-0.15
Cc1cc(C(F)F)nn1CC(=O)NC1CCCCCC1	2	0.76
Cc1ccc2nc(NC(=O)CCCC(=O)O)sc2c1	0.7	-0.02

The listing continues:
SMILES	KCNQ2 pot	KCNQ2 pot baseline
O=C(O)c1cnn(-c2ccccc2)c1-c1ccncc1	0.01	0.64
O=C(N/N=C/c1ccc(N2CCOCC2)cc1)c1ccc(NS(=O)(=O)c2cccs2)cc1	1.1	-0.17
COc1ccc(/C=N/NC(=O)c2nnn(-c3nonc3N)c2CN(C)C2CCCCC2)cc1	0.76	-0.57
O=C(N/N=C/c1ccccc1F)NC1CCCCC1	0.34	0.06
COc1ccc(C(=O)c2c(C)oc3ccc(O)c(CN4CCOCC4)c23)cc1	0.9	-0.12
CS(=O)(=O)N(CC(=O)NC1CCCC1)Cc1ccc(Cl)cc1	0.01	-0.55
CCOc1ccccc1NS(=O)(=O)c1cn(C)c(=O)n(C)c1=O	1.1	-1.3
COc1cccc2cc(C(C)N(CCCN3CCOCC3)C(=S)Nc3cccc(C)c3C)oc12 (stereo not given)	1.7	-2
O=C(NC1CCCCCC1)c1c(O)c2ccccc2[nH]c1=O	1.8	-1.6
CCn1c(SCC(=O)N2CCC(C)CC2)nnc1-c1ccc(S(=O)(=O)N2CCN(C)CC2)cc1	0.58	-0.69
COc1ccc(C)cc1S(=O)(=O)N(C)CC(=O)N1CCCCCC1	0.61	1.5
O=C(NCc1ccccc1)c1c(O)c2ccccc2[nH]c1=O	0.63	0.37
NC(=O)C1CCN(C(=O)c2ccc3c(=O)n(Cc4cccc(Br)c4)c(=S)[nH]c3c2)CC1	0.01	-1
COc1ccc(C(=O)N(CN2CCCC2=O)c2ccc(C)cc2)cc1	0.3	-0.46
CN1CSC2=C(C#N)C(c3cccc(OCc4ccccc4)c3)CC(=O)N2C1 (stereo not given)	0.21	0.01
Cc1[nH]c(C)c(C(=O)/C=C/c2ccc([N+](=O)[O-])cc2)c1C	0.38	0.85
O=C1C(=O)N(c2ccccn2)C(c2cccc(F)c2)/C1=C(/O)c1ccccc1 (stereo not given)	0.84	0.02
O=C(CCSc1ccc(Br)cc1)Nc1cccnc1	0.67	0.71
COCCCNC(=S)NC(=O)c1ccc([N+](=O)[O-])cc1	0.01	0.19
O=C1C2CCCCC2C(=O)N1c1ccc(S(=O)(=O)Nc2ncccn2)cc1 (stereo not given)	0.58	-1.3
O=C(COC(=O)c1nc(Cl)ccc1Cl)NC1CCS(=O)(=O)C1 (stereo not given)	0.32	-2
CCOC(=O)c1ccc(CC(=O)c2ccc(O)c(O)c2O)o1	1.1	0.36
Cc1nc(Cl)c(C(=O)NCCC(C)C)c(C)c1[N+](=O)[O-]	0.31	-0.33
CC(=O)NCC(O)c1ccc([N+](=O)[O-])cc1 (stereo not given)	0.13	-0.1
O=C(COc1ccc2ccccc2c1)NCCNC(=O)COc1ccc2ccccc2c1	0.3	1.1

Structures listed so far that have an NH in an aromatic ring, in the order listed:
SMILES	KCNQ2 pot	KCNQ2 pot baseline
CCCc1cc(=O)n2[nH]c(NC(=O)c3ccco3)nc2n1	1.5	1.2
CCc1cc(-c2n[nH]c(=S)n2-c2ccccc2C)cs1	0.54	-0.98
O=C(N/N=C/c1c[nH]c2ccccc12)c1ccn[nH]1	0.09	1.6
CCCc1cc(=O)[nH]c(SCc2cc(C(=O)OC)c(C)o2)n1	0.1	-0.15
O=C(NC1CCCCCC1)c1c(O)c2ccccc2[nH]c1=O	1.8	-1.6
O=C(NCc1ccccc1)c1c(O)c2ccccc2[nH]c1=O	0.63	0.37
NC(=O)C1CCN(C(=O)c2ccc3c(=O)n(Cc4cccc(Br)c4)c(=S)[nH]c3c2)CC1	0.01	-1
Cc1[nH]c(C)c(C(=O)/C=C/c2ccc([N+](=O)[O-])cc2)c1C	0.38	0.85

The listing continues.
SMILES	KCNQ2 pot	KCNQ2 pot baseline
CCCCNC(=O)NS(=O)(=O)c1ccc(C(=O)OC(C)C)o1	0.59	-0.18
CCc1csc(CNC(=O)C2CCC(=O)N(Cc3cccc(F)c3)C2)n1 (stereo not given)	0.68	2.8
O=C(CNC(=O)c1ccc(Cl)cc1Cl)OCc1ccccc1	0.09	0.57
CCCOc1ccc(/C(O)=C2/C(=O)C(=O)N(CCN(C)C)C2c2ccc(OC)c(OC)c2)cc1 (stereo not given)	0.81	0.07
Cc1ccc(S(=O)(=O)N2CCCCC2)cc1NC(=O)Nc1ccc(Cl)cc1Cl	0.06	-0.63
Clc1ccc(C2Nc3cccc4cccc(c34)N2)cc1Cl	0.28	-0.92
COc1cccc(CNC(=O)c2ccc3c(c2)N(C)CCS3)c1OC	0.04	0.1
CCN(CC)C(=O)CSc1nc2c(sc(=S)n2-c2ccccc2)c(=O)n1-c1ccccc1OC	0.09	-1.3
CC1C/C(=N\NC(=O)c2ccc([N+](=O)[O-])cc2)CC(C)(C)C1 (stereo not given)	1.2	1
CCOc1ccccc1N=NC1C(=O)N(C(N)=S)N=C1C (stereo not given)	1.7	-0.9
CC1=C(C(=O)NC2CCCC(C)C2C)C2(CCCCC2)OC1=O (stereo not given)	1.5	-0.08
CCOC(=O)C1=C(C)NC(C)=C(C(=O)OCC)C1C(=O)OCC(=O)NC	1.1	-0.51
Cn1c(=O)c(C(N)=S)cn(-c2ccccc2)c1=O	0.81	2.4
Clc1cc(Br)ccc1OCCN1CCOCC1	0.81	-0.27
COc1ccc(CCNC2CCN(C)CC2)cc1OC	0.61	0.53
Cc1cccnc1NC(=S)Nc1ncccc1C	0.42	1.6
CSCCC1NC(=O)N(CC(=O)Nc2ccc(N3CCCCC3)cc2)C1=O (stereo not given)	0.39	-0.46
CCC(C)[C@H](NC(=O)N1CCCCCC1)C(=O)OC (stereo not given in full)	0.37	0.49
COC(=O)c1ccccc1NC(=O)CSc1nc2ccccc2c(=O)[nH]1	0.54	1.5
CCOc1ccc(S(=O)(=O)N(C)CC(=O)N2CCN(CC)CC2)cc1	0.79	1.5
Cc1ccc([N+](=O)[O-])cc1NC(=O)Cc1cccs1	0.92	0.97
COc1ccc(C(=O)CSc2nnc(-c3cccs3)n2-c2ccccc2)cc1	0.15	-0.68
Cc1cccc(C(=O)NNC(=S)NC(=O)c2ccccc2)c1	0.69	0.18
CCn1c(C)nc2cc(C(=O)NNC(=S)Nc3ccc(F)cc3)ccc21	0.04	-3.4
CCOC(=O)Cn1c(=O)c(F)cn(Cc2ccc(OC)c([N+](=O)[O-])c2)c1=O	0.95	2.2

Brought forward from above: seven compounds, then new ones.
SMILES	KCNQ2 pot	KCNQ2 pot baseline
COC(=O)c1ccccc1NC(=O)CSc1nc2ccccc2c(=O)[nH]1	0.54	1.5
CCOc1ccc(S(=O)(=O)N(C)CC(=O)N2CCN(CC)CC2)cc1	0.79	1.5
Cc1ccc([N+](=O)[O-])cc1NC(=O)Cc1cccs1	0.92	0.97
COc1ccc(C(=O)CSc2nnc(-c3cccs3)n2-c2ccccc2)cc1	0.15	-0.68
Cc1cccc(C(=O)NNC(=S)NC(=O)c2ccccc2)c1	0.69	0.18
CCn1c(C)nc2cc(C(=O)NNC(=S)Nc3ccc(F)cc3)ccc21	0.04	-3.4
CCOC(=O)Cn1c(=O)c(F)cn(Cc2ccc(OC)c([N+](=O)[O-])c2)c1=O	0.95	2.2
COc1ccc(N2C(=O)C(O)C2c2ccc(C)cc2)cc1 (stereo not given)	1.2	0.41
O=C(Nc1cccc(C(=O)O)c1)/C(=C/c1ccc2c(c1)OCO2)NC(=O)c1cccc(Br)c1	1.1	-0.15
Cc1cccc(-c2nc(CS(=O)CC(=O)NC3CCCCC3)c(C)o2)c1 (stereo not given)	0.74	-0.02
COc1cc(C)c(Cl)cc1S(=O)(=O)NCCCN1CCOCC1	1.8	-1.2
COc1ccccc1NC(=S)N1CCOCC1	1.1	0.04
Cc1csc(SC(C)C(=O)NCC2CCCO2)n1 (stereo not given)	1.8	-1.6
O=C(CCCn1c(=O)oc2ccccc21)N1CCN(c2ccc(F)cc2)CC1	0.52	1.3
CC(=O)NCCc1ccc(S(=O)(=O)Nc2cccnc2)cc1	0.02	0.53
CCOc1ccccc1N(C)S(=O)(=O)c1ccc2c(c1)CC(C)N2C(=O)C1CC1 (stereo not given)	0.01	-0.31
COc1cccc(COC(=O)C2CC(=O)N(Cc3ccco3)C2)c1OC (stereo not given)	1.6	0.64
COc1cccc(CNC(=O)CSc2nc3ccc(C)cc3[nH]2)c1	0.55	-1.9
CCOc1ccc(S(=O)(=O)Nc2ccc(S(=O)(=O)N3CCOCC3)cc2)cc1	0.46	-0.53
O=C(Nc1cc(F)cc(F)c1)c1ccc(NCCCN2CCCCCC2)c([N+](=O)[O-])c1	1.2	-0.02
COc1ccccc1/C=C/C=N/n1c(-c2ccc(Cl)cc2)n[nH]c1=S	0.07	-1.5
COc1ccc(-c2ccc(SCC(=O)N3CC(=O)Nc4ccccc43)nn2)cc1	2.4	-0.36
Cc1cc(Cl)c(S(=O)(=O)Nc2ccc3c(c2)OCCO3)cc1OCC(N)=O	0.39	-0.99
Cc1nn(C)c(C)c1CN(C)C(=O)c1cc2nc(-c3ccco3)cc(C(F)(F)F)n2n1	1.9	-3.8
COc1ccc(CNC(=O)C(CCSC)NS(=O)(=O)c2ccccc2F)cc1 (stereo not given)	1.5	-1.1
O=C(Nc1ccon1)c1cccc(C(F)(F)F)c1	0.65	-0.07
CN(C)CCNC(=O)CCn1nc(-c2ccc(Cl)cc2)ccc1=O	0.85	0.4
CCOC(=O)N=Nc1c(O)n(Cc2ccccc2)c2ccccc12	0.45	0.01
COc1ccccc1CNC(=O)/C=C/c1ccc(Br)o1	0.02	-1.5
NNC(=O)CC12CC3CC(C1)CC(n1ncnn1)(C3)C2	3	0.65
CN(C(=O)c1sc2nc(N3CCOCC3)c3c(c2c1N)CCCC3)c1ccccc1	0.16	-0.86
CCN(CC)CCNC(=O)c1ccc(NC(=O)c2ccc(S(=O)(=O)N3CCCCCC3)cc2)cc1	0.01	-1.6

Brought forward from above: 2 compounds, followed by the next part.
SMILES	KCNQ2 pot	KCNQ2 pot baseline
CN(C(=O)c1sc2nc(N3CCOCC3)c3c(c2c1N)CCCC3)c1ccccc1	0.16	-0.86
CCN(CC)CCNC(=O)c1ccc(NC(=O)c2ccc(S(=O)(=O)N3CCCCCC3)cc2)cc1	0.01	-1.6
COc1ccc(-c2oc3ncn(CCN4CCOCC4)c(=N)c3c2-c2ccc(OC)cc2)cc1	0.38	-1.6
Cc1ccccc1C1NC(c2ccccc2C)C([N+](=O)[O-])C(C)(C)C1[N+](=O)[O-] (stereo not given)	0.41	-1.5
COc1cc(C(=O)Oc2cccc(/C=N/NC(=O)c3cccnc3)c2)cc(OC)c1OC	3	1.5
CC#CCN1c2ccccc2[C@]23C[C@@H](C(=O)OC)N(C(=O)NCCBr)C2=NC(C(=O)OC)=C(C(=O)OC)[C@H]13	0.52	-0.75
Cc1cc(C(=O)NCc2cccs2)no1	0.12	0.13
O=c1[nH]c(=O)c2nnc(N/N=C\c3ccc(O)cc3)nc2[nH]1	0.15	-0.76
CN(C)S(=O)(=O)c1ccc(=S)[nH]c1	0.2	0.48
COC(=O)Cn1c(=NC(=O)c2ccc(S(=O)(=O)N3CCOCC3)cc2)sc2cc(S(N)(=O)=O)ccc21	0.27	0.43
COc1cc2c(cc1OC)C(c1ccc(Br)cc1)NC(=O)C2 (stereo not given)	0.05	-0.13
CC(C)CN1C(=O)NC(NC(=O)c2ccco2)(C(F)(F)F)C1=O (stereo not given)	0.11	0.13
FC(F)(Cl)c1nnc2ccc(Cl)nn12	0.68	0.1
C=CCN1C(=O)C(O)(CC(=O)c2c(C)n[nH]c2C)c2cc(Br)ccc21 (stereo not given)	0.32	-1.9
COc1cnc(-c2ccccn2)nc1Sc1ccccc1	4	-3.5

High-throughput results from PubChem.

The list is partial; count on the stated rates, not on these rows.
